Six1-Eya2 inh: blocks human Six1 binding to Eya2 | AlphaScreen GST-Six1/His-Eya2 binding, biochemical; hits give low values; control for the full effect not named in the record | actives 0.56% (n = 360,000) | Q15475+O00167 | activity change, % (test concentration not listed); in the data active = activity change below about -65%; inconclusive = about -30% to -65%; inactive = above about -30%; also: % is scaled to controls: 0 for no effect and ±100 for the full control effect; compound concentration not given in the record
Target sequence (O00167 whole entry, looked up): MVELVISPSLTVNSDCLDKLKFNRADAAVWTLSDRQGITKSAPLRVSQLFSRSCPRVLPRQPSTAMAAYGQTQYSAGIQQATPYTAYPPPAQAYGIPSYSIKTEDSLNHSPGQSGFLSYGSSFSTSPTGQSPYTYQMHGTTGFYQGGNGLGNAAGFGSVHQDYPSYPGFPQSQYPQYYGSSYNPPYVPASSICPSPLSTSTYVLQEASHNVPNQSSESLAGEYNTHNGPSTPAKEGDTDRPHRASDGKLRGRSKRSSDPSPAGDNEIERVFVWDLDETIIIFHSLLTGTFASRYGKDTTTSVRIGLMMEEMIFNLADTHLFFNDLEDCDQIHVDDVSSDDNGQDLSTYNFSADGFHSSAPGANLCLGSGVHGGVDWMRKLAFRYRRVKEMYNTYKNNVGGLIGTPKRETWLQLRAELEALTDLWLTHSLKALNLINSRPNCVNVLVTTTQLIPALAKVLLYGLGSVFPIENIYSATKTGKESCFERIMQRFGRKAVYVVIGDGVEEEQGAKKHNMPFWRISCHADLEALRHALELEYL
Target sequence (Q15475 whole entry, looked up): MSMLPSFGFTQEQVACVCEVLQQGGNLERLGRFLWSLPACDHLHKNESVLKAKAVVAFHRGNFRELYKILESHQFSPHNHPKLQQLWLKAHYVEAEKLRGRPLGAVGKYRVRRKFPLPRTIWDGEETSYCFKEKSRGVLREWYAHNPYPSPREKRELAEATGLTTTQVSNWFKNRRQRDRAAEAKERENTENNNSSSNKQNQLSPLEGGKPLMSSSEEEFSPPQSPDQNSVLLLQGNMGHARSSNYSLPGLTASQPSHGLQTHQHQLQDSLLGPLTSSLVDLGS
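AlphaScreen with GST-Six1 and His-Eya2 (5X mix: 250 nM and 500 nM), glutathione donor and nickel acceptor beads; buffer 50 mM Tris pH 8.0, 300 mM NaCl, 1 mM TCEP; 1 h at 37 C in the dark.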
PINK1 modulator: modulators of PINK1 expression | PINK1 immunofluorescence, high-content cytometry, 24 h | Potency, µM (series often up to 76.6 µM), for inactives: at the top dose activation (PINK1 increase), most hits filed as activators | AID 624263 | actives 0.2% (n = 410,000); active = well fitted activation curve with a large enough effect; inconclusive = small, poorly fitted or top-dose-only effect; inactive = flat fitted curve, though single readings scatter; cell line not stated here;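 also: potency is read from the fitted curve at half-maximal effect; % of control where 0% means no effect; nearly all actives have a fitted effect of over 65% in size; a mitochondrial uncoupler was the plate control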
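PINK1 protein level read as immunofluorescence by microplate cytometer in a fixed, stained stable cell line after 24 h exposure to five compound concentrations, with CCCP as control.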
TRPML1 agonist: human mucolipin-1 channel agonism; activation, % (test concentration not listed); actives 0.12% (n = 410,000); Q9GZU1; TRPML1-expressing cells, Ca2+ dye fluorescence, FDSS; host cell line not named in the record; reference of the full effect not given here; in the data active = activation above about 50%; inconclusive = about 30% to 50%; inactive = below about 30%; also: 0% is about no effect; the text of the record puts the active cut at 80%
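In this qHTS format, compounds were pin-transferred onto Ca8-dye-loaded TRPML1-DL cells induced with Tet overnight, and intracellular Ca2+ fluorescence was recorded kinetically for 110 s after a 10 s baseline. A subsequent 4uM final 54-4 (EC80) addition followed by a second 110 s read served as the antagonist phase.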
D2 PAM: positive allosteric modulators of human D2 dopamine receptor; P14416; DiscoveRx D2 beta-arrestin cells, luminescence, 90 min; 100% = 57 uM dopamine signal; potentiation, % (concentration not given with the values); actives 0.23% (n = 360,000); active = potentiation of 50% or more; inconclusive = 30% to 50%; inactive = 30% or less;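 also: compound concentration not given in the record; tested on top of an EC20 dose of dopamine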
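D2 cells co-treated with compound plus 50 nM dopamine (EC20) for 90 min at 37 deg C to detect potentiation. Beta-arrestin recruitment was read as enzyme-fragment luminescence after 1 h at ambient temperature. Full response was set by 57 uM dopamine.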
D2 ag: activates the human D2 dopamine receptor. AID 624465. activation, % (concentration not given with the values). actives 0.084% (n = 360,000). DiscoveRx PathHunter D2 beta-arrestin, luminescence, 90 min; 100% = 57 uM dopamine signal. P14416; in the data active = activation above about 40%; inconclusive = about 15% to 40%; inactive = below about 15%; also: compound concentration not given in the record; the text of the record calls up to 30% inactive
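DiscoveRx PathHunter D2 beta-arrestin cells (2,100/well) attached overnight, then compound-stimulated 90 min at 37 C in HBSS/10 mM HEPES/0.1% Tween-20 buffer; beta-galactosidase complementation read by luminescence after 1 h at ambient temperature. Dopamine 57 uM final (EC100) as control.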
TRPML1 inh: inhibitors of human TRPML1 channel. Q9GZU1. TRPML1-inducible cells, Ca2+ dye fluorescence, FDSS; hits give low values; inhibition of EC80 agonist-evoked calcium signal. activity change, negative = inhibition, % (concentration not given with the values). actives 0.02% (n = 390,000). AID 624415; in the data active means activity change below about -50%; inconclusive means about -30% to -50%; inactive means above about -30%;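 also: stimulus is agonist 54-4 at its EC80 concentration; % is scaled to controls: 0 for no effect and ±100 for the full control effect; compound concentration not given in the record; the text of the record puts the active cut at -80%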
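Tet-induced TRPML1-DL cells loaded with Ca8 no-wash calcium dye were read kinetically on FDSS. Compound addition was followed by EC80 agonist 54-4 (4 uM final); inhibition was read over 110 s.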
The depositor's hits bear a star; [ ] = another dose, or the depositor's remark. This is a random part of the collection; overall some 1% were active at least once.

What do the screens show for `Cc1ccc2c(C(=O)CN3CCSCC3)c(C)[nH]c2c1`?
Six1-Eya2 inh: 1.6; PINK1 modulator: 1.2%; TRPML1 agonist: 0.7; D2 PAM: -9.6; D2 ag: -0.5; TRPML1 inh: 24.1

What do the screens show for `CCN1CCN(c2nc3ccccc3nc2C(C#N)S(=O)(=O)c2ccc(C)c(C)c2)CC1` (stereo not given)?
Six1-Eya2 inh: 6.2; PINK1 modulator: -3.0%[38.3 µM]; TRPML1 agonist: 0.0; D2 PAM: -5.3; D2 ag: -0.5; TRPML1 inh: 10.2

How did Cc1cccc(OCc2nnc(SCC(=O)N3CCc4ccccc43)n2C)c1 do in these assays?
Six1-Eya2 inh: -1.1; PINK1 modulator: -0.5%[38.3 µM]; TRPML1 agonist: 0.8; D2 PAM: 1.1; D2 ag: 1.4; TRPML1 inh: -9.0

How did O=C(NCc1ccccn1)[C@@H]1C[C@H]1[C@@H](NP(=O)(c1ccccc1)c1ccccc1)c1ccccc1 do in these assays?
Six1-Eya2 inh: 2.8; PINK1 modulator: 5.2%; TRPML1 agonist: -0.3; D2 PAM: -25.2; D2 ag: -0.7; TRPML1 inh: -26.3

How did CCC1CCCCN1CCCNC(=O)Cn1cnc2sc(C)c(S(=O)(=O)N3CC(C)CC(C)C3)c2c1=O (stereo not given) do in these assays?
Six1-Eya2 inh: -0.8; PINK1 modulator: -1.3%; TRPML1 agonist: 0.3; D2 PAM: -0.7; D2 ag: -5.2; TRPML1 inh: 2.6

What do the screens show for `CN1C[C@@H]2[C@@H]3C(=O)N(Cc4ccccc4)C(=O)[C@@H]3[C@](Cc3ccccc3)(C1=O)N2C(=O)c1ccc(Br)cc1`?
Six1-Eya2 inh: -1.6; PINK1 modulator: 2.7%; TRPML1 agonist: 2.9; D2 PAM: -6.0; D2 ag: -1.6; TRPML1 inh: -12.0

What do the screens show for `COc1ccccc1Oc1nc(-c2ccccc2)cc(C)c1S(C)(=O)=O`?
Six1-Eya2 inh: -4.6; PINK1 modulator: -0.5%; TRPML1 agonist: 0.5; D2 PAM: -6.0; D2 ag: -5.9; TRPML1 inh: 4.1

Results for COc1ccc(C2Nc3cccc4cccc(c34)N2)cc1Br ?
Six1-Eya2 inh: 13.4; PINK1 modulator: -0.2%; TRPML1 agonist: 0.0; D2 PAM: 53.9*; D2 ag: 7.0; TRPML1 inh: -24.8

How did CCOC(=O)c1cccc(NC(=O)CSc2nnc(-c3ccncc3)n2CCCOC)c1 do in these assays?
Six1-Eya2 inh: 0.4; PINK1 modulator: 1.9%[38.3 µM]; TRPML1 agonist: 1.1; D2 PAM: 3.2; D2 ag: 1.2; TRPML1 inh: -1.2

Results for CCn1nc(C)c(C2C(C#N)=C(N)OC3=C2C(=O)CCC3)c1C (stereo not given) ?
Six1-Eya2 inh: -0.3; PINK1 modulator: -0.7%; TRPML1 agonist: -0.2; D2 PAM: -0.6; D2 ag: -3.7; TRPML1 inh: 51.6

Results for CC(C)c1ccc(CNC(=O)C2CCCN2S(=O)(=O)c2ccccc2)cc1 (stereo not given) ?
Six1-Eya2 inh: 0.6; PINK1 modulator: 2.6%; TRPML1 agonist: 0.8; D2 PAM: -8.2; D2 ag: -6.1; TRPML1 inh: 9.4

Results for NC(=O)c1ccsc1NC(=O)COC(=O)c1ccc(Cl)cc1 ?
Six1-Eya2 inh: -6.9; PINK1 modulator: 12.7%; TRPML1 agonist: -0.3; D2 PAM: -4.4; D2 ag: 0.9; TRPML1 inh: -9.6

What do the screens show for `Cc1ccc(N2C(=O)CC(SCC(=O)Nc3ccc(S(N)(=O)=O)cc3)C2=O)cc1` (stereo not given)?
Six1-Eya2 inh: -4.2; PINK1 modulator: 2.2%; TRPML1 agonist: -0.4; D2 PAM: -11.1; D2 ag: -1.0; TRPML1 inh: 2.8

How did COC(=O)/C=C1\SC(N2CCOCC2)=C(c2ccc(OC)cc2)C1=O do in these assays?
Six1-Eya2 inh: -2.6; PINK1 modulator: 2.3%; TRPML1 agonist: -0.5; D2 PAM: -2.6; D2 ag: -4.9; TRPML1 inh: -17.0

What do the screens show for `CCn1cc(C2CC(=O)NC2=O)c2ccccc21` (stereo not given)?
Six1-Eya2 inh: 0.7; PINK1 modulator: 0.5%; D2 PAM: -7.7; D2 ag: -5.7

How did CNC(=S)N1N=C(c2ccc(C)cc2)CC1c1ccc(Br)cc1 (stereo not given) do in these assays?
Six1-Eya2 inh: -12.6; PINK1 modulator: -19.7%[38.3 µM]; TRPML1 agonist: -0.6; D2 PAM: -15.5; D2 ag: -3.3; TRPML1 inh: 6.0

What do the screens show for `c1c2c(cc3sc(N4CCOCC4)nc13)OCO2`?
Six1-Eya2 inh: -3.3; PINK1 modulator: -0.3%; TRPML1 agonist: -0.7; D2 PAM: 0.1; D2 ag: -3.6; TRPML1 inh: 8.6

Results for CC1(C)CC(=O)C(C=NCCN2CCN(CC(=O)Nc3ccc(Cl)cc3)CC2)=C(O)C1 ?
Six1-Eya2 inh: -1.5; PINK1 modulator: 1.2%; TRPML1 agonist: 0.3; D2 PAM: -10.5; D2 ag: -2.5; TRPML1 inh: 0.0

What do the screens show for `CC1(c2nnnn2Cc2ccccc2)CCC(=O)N1CC(F)(F)F` (stereo not given)?
Six1-Eya2 inh: 0.7; PINK1 modulator: 0.4%; TRPML1 agonist: -0.4

What do the screens show for `COCCOCCn1c(/C=C/c2ccccc2)nc2ccccc21`?
Six1-Eya2 inh: 3.0; PINK1 modulator: 0.3%; TRPML1 agonist: 0.0; D2 PAM: -7.6; D2 ag: 1.6; TRPML1 inh: -14.5

How did COc1ccc(Nc2nc3ccc(C)cn3c(=O)c2/C=N/O)cc1 do in these assays?
Six1-Eya2 inh: 3.1; PINK1 modulator: -0.8%; TRPML1 agonist: 3.0; D2 PAM: -7.1; D2 ag: -2.5; TRPML1 inh: -4.4

Results for CCc1ccc(CNC(=O)CCCN2C(=O)CCn3nc(-c4cccn4C)cc32)cc1 ?
PINK1 modulator: 1.9%; TRPML1 agonist: 2.0; TRPML1 inh: -3.1

How did COc1ccccc1CN(C)C(=O)CSc1nnc(C2CC2)n1C1CC1 do in these assays?
Six1-Eya2 inh: 8.5; PINK1 modulator: 1.5%; TRPML1 agonist: 0.8; D2 PAM: 1.2; D2 ag: -1.2; TRPML1 inh: 13.2

What do the screens show for `COc1ccc(N2C(=O)CC(n3cnc4ccccc43)C2=O)cc1` (stereo not given)?
Six1-Eya2 inh: 2.5; PINK1 modulator: -0.5%; TRPML1 agonist: 0.0; D2 PAM: -4.8; D2 ag: -2.1; TRPML1 inh: -11.4

Reprinted at random: 2 records from the list
How did COc1ccccc1CN(C)C(=O)CSc1nnc(C2CC2)n1C1CC1 do in these assays?
Six1-Eya2 inh: 8.5; PINK1 modulator: 1.5%; TRPML1 agonist: 0.8; D2 PAM: 1.2; D2 ag: -1.2; TRPML1 inh: 13.2

What do the screens show for `CC1(c2nnnn2Cc2ccccc2)CCC(=O)N1CC(F)(F)F` (stereo not given)?
Six1-Eya2 inh: 0.7; PINK1 modulator: 0.4%; TRPML1 agonist: -0.4

(cont.)
Results for O=C(NCc1cc([N+](=O)[O-])ccc1O)c1cccc(NS(=O)(=O)c2ccccc2)c1 ?
Six1-Eya2 inh: -82.7*; PINK1 modulator: -3.3%; TRPML1 agonist: 1.3; D2 PAM: -15.1; D2 ag: -8.5; TRPML1 inh: 7.5

How did Cc1ccc(NC(=O)CSc2nnc(N)s2)c([N+](=O)[O-])c1 do in these assays?
Six1-Eya2 inh: -3.4; PINK1 modulator: 1.1%; TRPML1 agonist: -1.0; D2 PAM: 7.3; D2 ag: 0.0; TRPML1 inh: -14.8

Results for Cc1ccc(S(=O)(=O)N/N=C/c2ccccc2F)cc1[N+](=O)[O-] ?
Six1-Eya2 inh: -0.7; PINK1 modulator: 2.5%; TRPML1 agonist: 0.9; D2 PAM: -0.8; D2 ag: -6.3; TRPML1 inh: -1.1

How did CC(=O)c1c(O)c2ccccc2n(Cc2ccccc2)c1=O do in these assays?
Six1-Eya2 inh: 1.7; PINK1 modulator: -3.1%; TRPML1 agonist: 2.3; D2 PAM: -4.6; D2 ag: -0.6; TRPML1 inh: 5.6

What do the screens show for `COc1cccc(OC)c1OCCCSc1nc(C)cc(=O)[nH]1`?
Six1-Eya2 inh: 4.5; PINK1 modulator: 4.7%[38.3 µM]; TRPML1 agonist: 0.9; D2 PAM: -11.9; D2 ag: -0.8; TRPML1 inh: -6.5

Results for COCCn1c(SCC(=O)NC(=O)NCc2ccccc2)nc2ccccc21 ?
Six1-Eya2 inh: -3.2; PINK1 modulator: -0.3%; TRPML1 agonist: 5.1; D2 PAM: -6.3; D2 ag: -2.0; TRPML1 inh: inconclusive

What do the screens show for `Cc1cccc2cc(CN(Cc3ccccc3)C(=O)N(C)C)c(=O)[nH]c12`?
Six1-Eya2 inh: -4.1; PINK1 modulator: 0.8%; TRPML1 agonist: 2.0; D2 PAM: 0.7; D2 ag: -3.4; TRPML1 inh: -6.8

Results for CCOC(=O)c1c(C)c(C(=O)NCCN2CCOCC2)c(C)n1C ?
Six1-Eya2 inh: -0.2; PINK1 modulator: 0.0%[38.3 µM]; TRPML1 agonist: 0.8; D2 PAM: 1.0; D2 ag: -1.4; TRPML1 inh: 0.7

How did C=CCN=C1S/C(=C\c2ccc(Cl)cc2)C(=O)N1CC=C do in these assays?
Six1-Eya2 inh: 35.9; PINK1 modulator: 6.0%; TRPML1 agonist: 0.1; D2 PAM: -3.4; D2 ag: 1.2; TRPML1 inh: 1.9

How did C=CCC[C@@H](Cc1ccc(F)cc1)C(=O)OC[C@@H](Cc1c[nH]c2ccccc12)NC(=O)[C@H](CC=C)CC(=O)N(CCO)Cc1ccccc1 do in these assays?
Six1-Eya2 inh: -21.4; PINK1 modulator: 3.3%; TRPML1 agonist: -0.1; D2 PAM: 2.0; D2 ag: 3.4; TRPML1 inh: -0.9

How did CC(C)CN(C(=O)CN1C(=O)NC2(CCc3ccccc32)C1=O)C1CCS(=O)(=O)C1 (stereo not given) do in these assays?
Six1-Eya2 inh: 1.0; PINK1 modulator: 2.1%; TRPML1 agonist: 0.4; D2 PAM: 0.9; D2 ag: -1.0; TRPML1 inh: 0.9

What do the screens show for `Clc1ccc(NC2=NCCCCC2)cc1`?
Six1-Eya2 inh: 3.6; PINK1 modulator: 2.4%; TRPML1 agonist: -0.8; D2 PAM: 4.7; D2 ag: -2.0; TRPML1 inh: 17.6

How did CNC(=O)c1cc(C(=O)c2ccc(F)cc2Cl)c[nH]1 do in these assays?
Six1-Eya2 inh: 9.1; PINK1 modulator: -0.6%; TRPML1 agonist: 0.9; D2 PAM: -8.6; D2 ag: -2.5; TRPML1 inh: -6.5

What do the screens show for `CC(=O)Nc1ccc(C(=O)N/N=C/c2ccccc2OCc2ccccc2)cc1`?
Six1-Eya2 inh: -5.9; PINK1 modulator: 10.0%; TRPML1 agonist: -0.7; D2 PAM: -7.2; D2 ag: 8.5; TRPML1 inh: -4.4

How did COc1ccc(Cl)cc1-c1cc(C(=O)NCc2ccc(C(F)(F)F)cc2)[nH]n1 do in these assays?
Six1-Eya2 inh: 6.3; PINK1 modulator: 0.4%; TRPML1 agonist: 0.0; D2 PAM: -16.9; D2 ag: 2.5

Screening data deposited in PubChem by National Center for Advancing Translational Sciences (NCATS).
